CtBP-E1A blk = blocks the CtBP interaction with E1A. activity change, % (concentration not given with the values). actives 0.49% (n = 340,000). AlphaScreen GST-E1A/His-CtBP binding, 1536-well; active compounds read low; control for the full effect not named in the record; in the data active means activity change below about -65%; inconclusive means about -30% to -65%; inactive means above about -30%; further: on the % scale 0 is the no-effect control and ±100 the full control effect
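AlphaScreen with 125 nM GST-E1A and 125 nM His-CtBP (5X stocks) in Tris pH 8.0, 300 mM NaCl, BSA, Tween 20, TCEP. Compounds preincubated 2 h at 37 deg C, then glutathione donor/nickel acceptor beads added for 1 h at 37 deg C in dark.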
Menin-MLL FL inh = inhibitors of human menin-MLL interaction, wild-type MLL peptide | Fluorescence polarization, fluorescein-MLL peptide displacement from menin | FP activity change, % at 61.4 µM | AID 1766 | 290,000 tested, under 10 active; inconclusive = falling polarisation curve, or a change in total fluorescence; inactive = total fluorescence flat and polarisation flat or rising; no compound was filed as active; the % refers to the polarisation; negative = inhibition;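 further: % of control where 0% means no effect; inhibitors lower the polarisation; unlabelled MLL peptide was the positive control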
gsp antag = gsp mutant antagonism; Potency, µM (top dose mostly 76.9 µM), for inactives: top-dose activity change, negative = inhibition, most hits filed as inhibitors; AID 624288; gsp-mutant cells, cAMP HTRF, 30 min; control for the full effect not named in the record; actives 0.4% (n = 340,000); active = falling curve of any shape with a large fitted effect; inconclusive = falling curve, mostly with a smaller effect; inactive = flat or rising curve; cell line not stated here;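 further: intracellular cAMP measured with PDE inhibitor Ro 20-1724 present during compound exposure; potency means the concentration at half of the fitted maximal effect; on the % scale 0 is the no-effect control and ±100 the full control effect; nearly all actives have a fitted effect of over 65% in size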
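HTRF cAMP read-out (cAMP-d2 plus anti-cAMP antibody-K in lysis buffer, 30 min RT). Before lysis, cells are exposed to compounds with […] for 30 min at 37C in DPBS containing Ca/Mg, BSA and Tween 20.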
TRPV1 PAM = potentiators of human vanilloid receptor 1 (TRPV1) | potentiation, % at 8.33 µM | actives 0.02% (n = 320,000) | TRPV1-expressing cells, Fluo-8 calcium influx, capsaicin EC20 potentiation; host cell line not named in the record; control for the full effect not named in the record; active means potentiation above 80%; inconclusive means 30% to 80%; inactive means below 30%; further: 0% is about no effect
Target sequence (Q8NER1 whole entry, looked up): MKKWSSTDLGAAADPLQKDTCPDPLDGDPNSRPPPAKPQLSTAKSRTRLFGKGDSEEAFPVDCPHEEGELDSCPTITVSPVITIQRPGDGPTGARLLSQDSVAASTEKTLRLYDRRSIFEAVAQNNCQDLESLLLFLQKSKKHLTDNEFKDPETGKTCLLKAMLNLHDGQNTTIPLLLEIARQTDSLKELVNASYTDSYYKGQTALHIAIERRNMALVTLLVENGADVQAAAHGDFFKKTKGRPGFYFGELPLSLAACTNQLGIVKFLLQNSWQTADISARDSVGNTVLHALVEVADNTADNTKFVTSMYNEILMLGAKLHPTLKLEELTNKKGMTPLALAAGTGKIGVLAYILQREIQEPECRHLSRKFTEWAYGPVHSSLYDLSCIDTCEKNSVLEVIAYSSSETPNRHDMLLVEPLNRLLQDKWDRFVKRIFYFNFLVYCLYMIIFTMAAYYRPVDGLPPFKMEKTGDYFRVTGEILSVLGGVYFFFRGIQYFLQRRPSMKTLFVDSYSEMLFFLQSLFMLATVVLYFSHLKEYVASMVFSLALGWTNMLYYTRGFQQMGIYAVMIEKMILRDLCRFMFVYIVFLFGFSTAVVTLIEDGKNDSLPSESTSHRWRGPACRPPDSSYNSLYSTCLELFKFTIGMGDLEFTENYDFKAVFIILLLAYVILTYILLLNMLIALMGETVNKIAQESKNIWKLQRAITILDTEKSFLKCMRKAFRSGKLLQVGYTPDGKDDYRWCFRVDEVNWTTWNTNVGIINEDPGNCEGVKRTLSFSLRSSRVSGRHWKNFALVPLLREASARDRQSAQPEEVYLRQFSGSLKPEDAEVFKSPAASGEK
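Cells expressing TRPV1 were dye-loaded with Fluo-8 and read kinetically: 10 s baseline, 3 min after compound (agonist portion), then 2 min after EC20 capsaicin (allosteric enhancer portion). Calcium-bound dye fluorescence at 480/520 nm.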
ClpP mod = qHTS Assay for Activators of ClpP. purified B. subtilis ClpP, FRET peptide cleavage, 20 min. Potency, µM (top dose mostly 57.5 µM), for the others: at the top dose activity change, negative = active. AID 651965, 2013. ATP-dependent Clp protease proteolytic subunit (Bacillus subtilis (strain 168)), P80244. actives 1.9% (n = 340,000); active = well fitted falling curve with a large enough effect; inconclusive = small, poorly fitted or top-dose-only effect; inactive = no such curve, though single readings can be large or run the other way; further: potency means the concentration at half of the fitted maximal effect; the source files actives as falling curves though it sought activators and does not explain the sign; nearly all actives have a fitted effect of over 65% in size; many hits overshoot -100%
Target sequence (P80244 whole entry, looked up): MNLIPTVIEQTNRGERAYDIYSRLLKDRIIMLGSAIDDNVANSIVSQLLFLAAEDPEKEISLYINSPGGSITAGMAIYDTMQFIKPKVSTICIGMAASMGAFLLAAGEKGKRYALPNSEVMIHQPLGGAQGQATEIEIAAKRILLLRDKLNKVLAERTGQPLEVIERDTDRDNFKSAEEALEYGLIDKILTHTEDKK
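ClpP 10 microg/mL final, pH 8 Tris/KCl buffer with BSA, glycerol, Tween-20; compound pinned in; FRET-FV substrate; RT 20 min; Ex320/Em430; ΔFRET vs ADEP 5.8 microM, DMSO, no enzyme.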
Sfp PPTase inh = blocks B. subtilis Sfp PPTase activity. actives 3.5% (n = 310,000). Q9F4F7. Biochemical Sfp PPTase activity, qHTS. AID 1490. Potency, µM, for the others: max response, negative = inhibition, usual class: inhibitors; active means well fitted inhibition curve with a large enough effect; inconclusive means small, poorly fitted or top-dose-only effect, or another doubt; inactive means no such curve, though single readings can be large or run the other way;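 further: the enzyme is Sfp with the accession as filed and its product quenches rhodamine fluorescence; potency means the concentration at half of the fitted maximal effect; 0% = enzyme reaction without inhibitor and -100% = no enzyme wells; top concentration of the series not given in the record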
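Compounds were incubated with enzyme (final 15 nM) for 15 min at room temperature before substrate addition started the reaction. Fluorescence at 525 nm excitation, 598 nm emission was recorded immediately and after 30 minutes.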
gsp ag = gsp mutant agonism; gsp mutant cells, cAMP HTRF, 30 min; control for the full effect not named in the record; Potency, µM (doses to about 76.9 µM), for inactives: at the top dose activation (cAMP increase), usual class: activators; actives 0.13% (n = 340,000); AID 624287; active = well fitted activation curve with a large enough effect; inconclusive = small, poorly fitted or top-dose-only effect, or another doubt; inactive = no such curve, though single readings can be large or run the other way; cell line not stated here;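 further: phosphodiesterase inhibitor Ro 20-1724 added with compounds to block cAMP breakdown; potency means the concentration at half of the fitted maximal effect; nearly all actives have a fitted effect of over 60% in size; about a fifth of the inactives were tested at one dose only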
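Cells stably selected in G418 were plated at 2000/well, grown 16-24 hr, then given compounds in DMSO with the PDE inhibitor […] (300 uM solution added) for 30 min at 37C; cAMP was read by HTRF.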
* marks the source's active call; other numbers are inactive results; ? = inconclusive; nt = no result given; & = joins results of further samples; ! = not active in a repeat; [ ] = dose if it differs, or a comment.

# | SMILES | TRPV1 PAM | Menin-MLL FL inh | ClpP mod | CtBP-E1A blk | gsp ag | Sfp PPTase inh | gsp antag
1 | O=C1CCN(c2ccccc2)N1 | nt | nt | nt | 2 | -1% | nt | 9%
2 | CCCCc1ccc(NC(=O)CSc2nc(=O)n(CCCN3CCOCC3)c3c2CCC3)cc1 | -8 | nt | -1.7% | -5 | -59% | nt | -8%
3 | N/C(=N/OC(=O)c1cccc([N+](=O)[O-])c1)c1cccc([N+](=O)[O-])c1 | -1 | -1.2 | 2.0% | 0 | 11%[15.4 µM] | -1% | -1%
4 | CCOC(=O)c1nnn(-c2ccccc2C#N)c1C | -1 | 0.0 | 1.2% | -1 | -36%[inhibitor] | 3% | 8%
5 | O=C(CCC(=O)N1CCCCC1)Nc1ccc(Cl)c(Cl)c1 | -22 | nt | -20% | -3 | 5%[15.4 µM] | 12% | 3%
6 | O=C(C1CCN(CCCc2ccccc2)CC1)N(CCc1ccccc1)Cc1ccccc1 | 0 | 1.3 | -2.8% | -19 | -9% | ? | 10%
7 | Cc1ccc(F)cc1NC(=O)Cc1ncc(C(F)(F)F)cc1Cl | -5 | 0.3 | -3.5% | -9 | 3% | 23% | 4%
8 | COc1ccccc1CNC(=O)COC(=O)c1n[nH]c2ccccc12 | 8 | 0.6 | -66% | -3 | 1% | 8% | 2%
9 | O=C(C1CCC1)N1CCN(c2cccc(C(F)(F)F)c2)CC1 | -13 | -1.3 | nt | 0 | -39% | 3% | -16%
10 | O=C(NCCN1C(=O)S/C(=C\c2cccs2)C1=O)c1ccco1 | -5 | -1.1 | nt | 5 | -2%[15.4 µM] | 9% | 10%
11 | CCCCc1nc(N2CCOCC2)c(C#N)c2c1COC(C)(C)C2 | nt | 5.9 | 28µM* | 10 | 24% | 4% | -21%
12 | CCCc1cc(N2CCN(c3ccccn3)CC2)n2nc(C)c(-c3ccccc3)c2n1 | -21 | 2.9 | 28µM* | 0 | -43%[inhibitor] | -6% | -3%
13 | CCOC(=O)c1c(NC(=O)c2ccc(N3C(=O)[C@@H]4[C@H](C3=O)[C@H]3C=C[C@@H]4C3)cc2)sc2c1CC(C)CC2 (stereo not given in full) | -7 | -0.1 | nt | 2 | -3%[15.4 µM] | 1% | 13%
14 | Cc1sc(NC(=O)c2cccs2)c(C(=O)OC(C)C)c1C | -4 | 0.0 | -8.9% | 13 | 4% | 0% | 14%
15 | CCNS(=O)(=O)c1ccc(CCC(=O)N2CCCC2)cc1 | 6 | 0.7 | 1.2% | -3 | -7%[15.4 µM] | 11% | 3%
16 | CCN(CC(=O)Nc1ccc2c(c1)OCCO2)C(=O)c1cc(Cl)nc2ccccc12 | 2 | nt | -0.4% | nt | 9% | nt | -2%
17 | CCN1CCN(c2nc(Nc3cccc(OC)c3)nc(N)c2[N+](=O)[O-])CC1 | 12 | 0.9 | 0.8% | nt | 10% | 17% | 3%
18 | COc1ccc(-c2nnc(SC(C)C(=O)NNC(=O)c3ccc(C)cc3)o2)cc1 (stereo not given) | -13 | 1.1 | -2.2% | 5 | -2% | ? | 7%
19 | CC(C)(C)c1ccc(/C=N/NC(=O)C2CCCC2)cc1 | -4 | nt | 1.7% | 0 | 1% | 3% | 5%
20 | O=NN(CCCl)C(=O)NCCc1cccc[n+]1[O-] | nt | nt | -0.9% | 10 | -41%[inhibitor] | nt | nt
21 | COc1ccc(S(=O)(=O)Nc2ccccc2OC)cc1NC(=O)CC1CC2CCC1C2 (stereo not given) | 1 | 1.0 | -13% | -5 | 2% | 11% | -19%
22 | CCC(C)(C)N(C(=O)CCC(=O)Nc1cc(C)on1)C(C(=O)NC(C)(C)C)c1ccc(OC)cc1 (stereo not given) | 1 | 0.5 | nt | 1 | -36%[inhibitor] | 18% | 0%
23 | Cc1ccc(S(=O)(=O)N2CCN(C(=O)c3ccccn3)CC2)cc1 | 4 | -1.3 | 1.6% | nt | -56%[inhibitor] | 23% | 8%
24 | CCOc1ccc(/C=N/NC(=O)c2nnn(-c3nonc3N)c2-c2ccc(OCC)cc2)cc1 | 7 | 0.4 | 0.1% | 2 | 22%[15.4 µM] | 6% | -11%
25 | CCN1C(N(C)CCc2cccs2)=N[C@@H](c2ccccc2)C(C(=O)OC)=C1C | ? | -1.2&-0.1 | -0.7% | 1 | -16% | 9%&1% | 9%

Going on with the list:
# | SMILES | TRPV1 PAM | Menin-MLL FL inh | ClpP mod | CtBP-E1A blk | gsp ag | Sfp PPTase inh | gsp antag
26 | CCC(=O)N1CCc2cc(S(=O)(=O)CCC(=O)N(C)c3ccc(OC)cc3OC)ccc21 | 20 | 1.1 | -0.8% | -2 | -1% | -1% | -15%
27 | O=c1c2ccccc2nc(N/N=C/c2ccc(O)cc2)n1O | 3 | 0.6 | 0.4% | 5 | 0% | 35µM* | -3%
28 | COc1ccc(S(=O)(=O)N(C)CC(=O)NCc2ccco2)cc1 | -6 | 9.7 | -4.4% | 2 | 2% | -24% | -10%
29 | CCCCN(C)C(=O)c1ccc2c(c1)N(CC)C(=O)c1ccccc1S2(=O)=O | 8 | 0.8 | 0.3% | 2 | -27% | 12% | -1%
30 | C#Cc1ccc([C@H]2C=C(C(=O)N3CCOCC3)O[C@@H](OCc3ccc(CO)cc3)C2)cc1 | 18 | 0.6 | -2.4% | 1 | nt | 3% | -11%
31 | COc1ccc(N2C(=O)C(Cl)=C(NCc3ccccc3)C2=O)cc1 | -5 | 5.0 | 0.5% | 5 | 16% | -4% | -9%
32 | O=C(COc1ccccc1Cl)NCCNC(=O)c1cnccn1 | -4 | 1.1 | nt | 0 | -11% | 9% | 5%
33 | CN(CCc1ccccn1)C(=O)CCC1CCCN(C(=O)NC2CCCCC2)C1 (stereo not given) | -14 | -4.8 | nt | 3 | 17% | 19% | 6%
34 | COc1cc(/C=N/NC(=O)C(N)=O)ccc1OC(=O)c1cccs1 | 3 | -2.7 | nt | -10 | 10% | 7% | 10%
35 | CC1CCN(C(=S)Nc2ccc(F)cc2)CC1 | 4 | -1.8 | -1.0% | -13 | -13% | 0% | 3%
36 | Cc1ccc(NC(=O)CN2C(=O)NC3(CCCCC3C)C2=O)cc1S(=O)(=O)N1CCCCC1 (stereo not given) | -1 | nt | -1.1% | -23 | -4% | nt | -1%
37 | CC(C)CC(NS(=O)(=O)c1cccc(C(=O)O)c1)C(=O)O (stereo not given) | ? | -0.8 | 0.7% | -4 | 0%[15.4 µM] | 6% | 7%
38 | CCN(C(=O)COC(=O)COc1ccc2c(C)cc(=O)oc2c1)C1CCS(=O)(=O)C1 (stereo not given) | 18 | 3.6 | nt | -2 | 3%[15.4 µM] | 26% | -9%
39 | COc1ccccc1NC(=O)c1ccc(NC(=O)CN(C)Cc2ccccc2F)cc1 | 5 | -1.0 | nt | -22 | 0% | 4% | -18%
40 | C=CCN(c1ccccc1)S(=O)(=O)c1cccc(C(=O)N2CCN(c3ncccn3)CC2)c1 | 4 | nt | -3.4% | 6 | 9% | nt | -13%
41 | O=C(Nc1ccc2nc3n(c(=O)c2c1)CCCCC3)c1cc([N+](=O)[O-])ccc1F | -9 | nt | 1.7% | ? | 28% | 1% | 31%[activator]
42 | Cc1ccc(C(C)(C)C)cc1S(=O)(=O)Nc1cccc(S(=O)(=O)NC2=NCCC2)c1 | 8 | 11 | -3.1% | -6 | 8% | 12% | -10%
43 | O=C(Nc1ccccc1C(=O)O)c1cccc(F)c1 | nt | nt | 1.5% | -7 | 11% | nt | 9%
44 | O=C(COC(=O)c1ccccn1)Nc1ccccc1OC(F)F | -5 | -6.1 | nt | 0 | 10% | -21% | 12%
45 | CC(Oc1ccccc1)c1ccnc(N)n1 (stereo not given) | -2 | -1.7 | nt | 9 | 4%[15.4 µM] | 13% | 1%
46 | CCc1ccccc1N(CC(=O)N1CCN(c2ccc(F)cc2)CC1)S(C)(=O)=O | 3 | 1.6 | 0.0% | 9 | -13% | 15% | -10%
47 | CCCCn1cnc2c([nH]c3cc(OC)ccc32)c1=O | 16 | 1.4 | -11% | -3 | -1% | 6% | 3%
48 | COc1cc([N+](=O)[O-])cc(/C=N/NC(=O)C(C)Nc2cccc(C)c2)c1O (stereo not given) | 1 | 5.8 | -2.4% | ? | -1% | 5% | -11%
49 | Cc1cc(C)nc(SCc2nnc(SCC#N)n2-c2cccc(Cl)c2)n1 | ? | 3.5 | -0.7% | -2 | 7% | -3% | -1%
50 | O=C(NCc1ccco1)C(c1ccncc1)N(C(=O)Cc1cccs1)c1ccccc1 (stereo not given) | 2 | 0.9 | nt | 3 | 8% | 3% | -6%

(more compounds)
# | SMILES | TRPV1 PAM | Menin-MLL FL inh | ClpP mod | CtBP-E1A blk | gsp ag | Sfp PPTase inh | gsp antag
51 | CCOC(=O)c1cc(C(C)(C)C)nc(SC)c1C#N | -1 | 2.4 | -7.3% | nt | 8% | -3% | -10%
52 | COc1cc(CN2CCCCC2C(=O)Nc2ccc(Oc3ccccc3)nc2)ccc1O (stereo not given) | -8 | -3.2 | -4.0% | 1 | 27% | 4% | -8%
53 | CCOC(=O)CCC(NC(=O)c1ccc(Nc2nc3ccccc3nc2C(=O)OCC)cc1)C(=O)OCC (stereo not given) | nt | nt | 2.0% | 15 | -1% | nt | 6%
54 | CCCCC1(C(=O)OCC)NC(c2ccc(O)cc2)C2C(=O)N(c3ccccc3)C(=O)C21 (stereo not given) | 3 | 0.3 | nt | 9 | 57% | 7% | 8%
55 | COc1ccc(/C=C/C(=O)N(Cc2cccs2)C2CCS(=O)(=O)C2)cc1 (stereo not given) | -4 | -2.7 | 0.1% | 1 | -8%[15.4 µM] | 3% | -9%
56 | NCCSSCCN | -18 | 0.7&-0.1&-1.0 | 3.6% | -18 | nt | 45µM*! | 6%
57 | CCCCn1c(N)c(N(CC)C(=O)C2CCCC2)c(=O)[nH]c1=O | -3 | nt | -1.3% | nt | 1% | nt | 10%
58 | Cc1cc(Cl)c2oc(C(=O)N(C)CCc3cnn(C)c3)c(C)c2c1 | -25 | 2.0 | -0.6% | 3 | 21% | 4% | 9%
59 | Cc1cccc(NC(=O)c2nc[nH]c2C(=O)N2CCC(C)CC2)c1 | -10 | nt | 1.2% | nt | 14% | nt | -5%
60 | CCOC(=O)Cn1c(CN(Cc2ccccc2)Cc2ccccc2)nc2c1c(=O)[nH]c(=O)n2C | 0 | -2.9 | -2.8% | -11 | 3% | 12% | -11%
